PINK1 expr mod – A Quantitative High throughput Screen to Identify Chemical Modulators of PINK1 Expression; Potency, µM (titrated, usually from 76.6 µM), inactives show at the highest dose activation (PINK1 increase), most hits filed as activators; 410,000 compounds, 0.2% hits; PINK1 immunofluorescence, high-content cytometry, 24 h; active = well fitted activation curve with a large enough effect; inconclusive = small, poorly fitted or top-dose-only effect; inactive = flat fitted curve, though single readings scatter; cell line not stated here;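 also: potency is read from the fitted curve at half-maximal effect; % of control where 0% means no effect; nearly all actives have a fitted effect of over 65% in size; a mitochondrial uncoupler was the plate control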
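Cells are seeded, rested 12 hours, then given compound at five concentrations or DMSO for 24 hours. After fixation, blocking and antibody staining, PINK1 amount and mitochondrial localization are scored; CCCP serves as control.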
CtBP-E1A inh – qHTS Assay for Inhibitors of the CtBP/E1A Interaction | AlphaScreen GST-E1A/His-CtBP binding, 1536-well; active compounds read low; control for the full effect not named in the record | activity change, % (test concentration not listed) | 340,000 compounds, 0.49% hits | AID 651724, 2012; in the data active means activity change below about -65%; inconclusive means about -30% to -65%; inactive means above about -30%; also: % is scaled to controls: 0 for no effect and ±100 for the full control effect
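Homogeneous bead-based format: GST-tagged E1A captured on glutathione donor beads, His-tagged CtBP on nickel acceptor beads; compounds precede bead addition by 2 h at 37 °C.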
Six1-Eya2 blk – qHTS Assay for Inhibitors of the Six1/Eya2 Interaction; Homeobox protein SIX1 (Homo sapiens) + Protein phosphatase EYA2 (Homo sapiens), …; AlphaScreen GST-Six1/His-Eya2 binding, biochemical; active compounds read low; control for the full effect not named in the record; activity change, % (test concentration not listed); 360,000 compounds, 0.56% hits; AID 651725, 2012; in the data active = activity change below about -65%; inconclusive = about -30% to -65%; inactive = above about -30%; also: % is scaled to controls: 0 for no effect and ±100 for the full control effect
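GST-Six1 + His-Eya2 (5X stock: 250/500 nM); Tris pH 8.0, 300 mM NaCl, 0.05% BSA, 0.02% Tween 20; GSH donor/Ni acceptor beads; 1 h 37 °C dark; AlphaScreen readout.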
D2 agonist – Beta-Arrestin HTS for Positive Allosteric Modulators of the Human D2 Dopamine Receptor: Agonists; D(2) dopamine receptor (Homo sapiens), P14416; DiscoveRx PathHunter D2 beta-arrestin, luminescence, 90 min; 100% = 57 uM dopamine signal; activation, % (concentration not given with the values); 360,000 compounds, 0.084% hits; AID 624465, 2012; in the data active = activation above about 40%; inconclusive = about 15% to 40%; inactive = below about 15%; also: the text of the record calls up to 30% inactive
Target sequence (P14416 whole entry, looked up): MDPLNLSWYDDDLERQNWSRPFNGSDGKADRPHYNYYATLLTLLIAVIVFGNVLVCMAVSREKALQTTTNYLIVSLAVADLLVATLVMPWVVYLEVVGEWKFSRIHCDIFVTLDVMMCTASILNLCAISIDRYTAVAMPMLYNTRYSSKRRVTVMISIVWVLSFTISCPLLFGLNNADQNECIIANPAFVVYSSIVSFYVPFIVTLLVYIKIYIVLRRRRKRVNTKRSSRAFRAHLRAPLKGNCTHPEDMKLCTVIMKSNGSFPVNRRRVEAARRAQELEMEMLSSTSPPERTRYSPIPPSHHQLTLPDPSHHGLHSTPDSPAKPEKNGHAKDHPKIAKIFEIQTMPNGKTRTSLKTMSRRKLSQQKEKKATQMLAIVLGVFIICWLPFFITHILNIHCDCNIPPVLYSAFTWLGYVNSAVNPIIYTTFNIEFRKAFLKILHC
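Agonist mode: compounds alone added to overnight-plated D2 PathHunter cells for 90 min at 37 C, with 57 uM final dopamine (EC100) defining full response. Beta-arrestin recruitment detected by chemiluminescent reagent, read after 1 h at ambient temperature.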
TRPML1 ag – qHTS for Agonists of the Human Mucolipin Transient Receptor Potential 1 (TRPML1); Mucolipin-1 (Homo sapiens), Q9GZU1; AID 624414, 2012; activation, % (no concentration beside the values); TRPML1-expressing cells, Ca2+ dye fluorescence, FDSS; host cell line not named in the record; reference of the full effect not given here; 410,000 compounds, 0.12% hits; in the data active = activation above about 50%; inconclusive = about 30% to 50%; inactive = below about 30%; also: 0% is about no effect; the text of the record puts the active cut at 80%
Target sequence (Q9GZU1 whole entry, looked up): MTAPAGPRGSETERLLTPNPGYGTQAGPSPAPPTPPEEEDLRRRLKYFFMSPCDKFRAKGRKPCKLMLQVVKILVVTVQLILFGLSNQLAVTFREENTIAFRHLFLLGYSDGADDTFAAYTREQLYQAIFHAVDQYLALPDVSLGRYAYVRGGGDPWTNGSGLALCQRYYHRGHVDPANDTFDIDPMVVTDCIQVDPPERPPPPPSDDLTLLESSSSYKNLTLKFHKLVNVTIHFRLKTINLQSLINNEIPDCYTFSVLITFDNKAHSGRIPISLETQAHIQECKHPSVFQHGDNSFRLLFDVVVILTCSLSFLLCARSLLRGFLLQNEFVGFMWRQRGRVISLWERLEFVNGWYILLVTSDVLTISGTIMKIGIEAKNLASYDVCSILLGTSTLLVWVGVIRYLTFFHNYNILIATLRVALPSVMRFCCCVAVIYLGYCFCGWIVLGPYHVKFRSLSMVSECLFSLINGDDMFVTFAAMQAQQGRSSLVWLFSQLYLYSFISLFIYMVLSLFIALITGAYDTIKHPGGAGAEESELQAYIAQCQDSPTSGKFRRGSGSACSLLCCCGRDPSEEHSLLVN
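Agonist activity was taken from a 110 s kinetic Ca2+ dye read on the FDSS after pinning compounds onto TRPML1-DL cells. The cells were seeded at 1,500/well with Tet inducer, incubated about 16 h, then dye-loaded at room temperature.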
TRPML1 inh – qHTS for Inhibitors of the Human Mucolipin Transient Receptor Potential 1 (TRPML1); Mucolipin-1 (Homo sapiens), Q9GZU1; TRPML1-inducible cells, Ca2+ dye fluorescence, FDSS; active compounds read low; inhibition of EC80 agonist-evoked calcium signal; activity change, negative = inhibition, % (concentration not given with the values); 390,000 compounds, 0.02% hits; AID 624415, 2012; in the data active means activity change below about -50%; inconclusive means about -30% to -50%; inactive means above about -30%;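 also: stimulus is agonist 54-4 at its EC80 concentration; % is scaled to controls: 0 for no effect and ±100 for the full control effect; the text of the record puts the active cut at -80%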
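TRPML1-DL cells, Tet-induced overnight (~16 h, 37 °C) at 1,500 cells/well, were loaded with Ca8 no-wash dye plus quencher for 45-90 min at room temperature. Compounds were pinned during FDSS kinetic reading; agonist 54-4 at EC80 (4 uM final) then added.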
* = called active by the depositor; ? = inconclusive; . = no result given; [ ] = another dose, or the depositor's remark.

SMILES | PINK1 expr mod | CtBP-E1A inh | Six1-Eya2 blk | D2 agonist | TRPML1 ag | TRPML1 inh
O=C(N/N=C/c1ccc(N2CCOCC2)cc1)c1cccs1 | 4.6% | -1 | 3 | -5.4 | 1.2 | 9
CSc1ccc(CCNS(=O)(=O)c2cc(-c3cc(C)no3)ccc2C)cc1 | -0.6% | . | . | . | 1.0 | 16
O=C(CSc1nccn(-c2ccc(F)c(Cl)c2)c1=O)NC1CCCC1 | 1.6% | 9 | 4 | -4.3 | -0.5 | 14
Cc1ccccc1CNC(=O)CN(c1cccc(C)c1C)S(C)(=O)=O | 1.6% | . | . | . | 0.2 | 16
CS(=O)(=O)c1cccc(-c2nnc(NC(=O)CCS(=O)(=O)c3ccccc3)o2)c1 | 2.4% | -14 | -5 | -3.1 | 0.5 | 3
COc1ccccc1C(=O)NC(=S)Nc1ccc(Cc2ccncc2)cc1 | 6.5% | . | -9 | -0.3 | 7.2 | -1
CCC(=O)N(CCC(Cc1ccccc1)c1ccco1)Cc1ccco1 (configuration not stated) | 1.9% | 0 | -6 | -0.8 | 2.5 | 0
O=C(Oc1ccc(-c2nccc(-c3ccccn3)n2)cc1)c1cccc(C(F)(F)F)c1 | 6.8% | -2 | 1 | 0.6 | -0.2 | -11
CCn1c(SCC(=O)N(Cc2ccccc2)C2CCS(=O)(=O)C2)nc2ccccc2c1=O (configuration not stated) | 0.0% | 2 | 3 | 0.1 | 0.2 | 22
CCOC(=O)N1CCN(C(=O)C[C@@H]2C[C@@]3(C(=O)OCC)CCC=C3N(Cc3ccco3)C2=O)CC1 | -0.5% | 1 | -2 | . | -0.9 | .
Cc1ccc(S(=O)(=O)c2c(N)n(CC3CCOC3)c3nc4ccccc4nc23)cc1 (configuration not stated) | 3.6%[38.3 µM] | 23 | 5 | -3.5 | 5.2 | 27
Cc1csc(NC(=O)c2ccc(S(=O)(=O)N(C)c3ccccc3)cc2)n1 | 1.0% | -13 | -1 | -0.1 | 0.0 | -9
CCOC(=O)c1c(NC(=O)CSc2cn(CCNC(=O)c3ccc(OC)c(OC)c3)c3ccccc23)sc2c1CCC2 | 2.7% | . | . | . | -0.1 | -2
Cn1nnnc1SCCCNCc1ccccc1OCc1ccccc1Cl | 0.3% | . | . | . | 2.5 | 18
COc1ccccc1NC(=O)c1sc2nc(C)cc(C)c2c1N | 13% | 12 | 14 | -6.3 | -0.8 | 61
CC1CC(C)CN(CCCCOc2ccc([N+](=O)[O-])cc2)C1 (configuration not stated) | 2.4% | 0 | -1 | -1.0 | 0.3 | 24
CN(C)CCNc1ncnc2c1sc1nc(N3CCOCC3)c3c(c12)CC(C)(C)SC3 | -5.1% | -14 | -29 | -5.2 | -0.6 | 1
COc1ccc(O)c(C=Nc2cc(C)on2)c1 | ? | 49 | 5 | -0.9 | 2.8 | -8
CCOc1ccc(NC(=O)Cc2nnc(SCC(=O)N3CCOCC3)n2C)cc1 | 2.7% | -18 | 7 | -0.7 | 0.2 | -4
O=C(O)c1ccccc1NS(=O)(=O)c1ccc(NN=Cc2ccc(F)cc2)c([N+](=O)[O-])c1 | 1.3% | -16 | -15 | 3.5 | 1.5 | 0
CCOC(=O)CN(Cc1sccc1C)C(=O)Nc1ccc(OC)cc1OC | 1.5% | -4 | 5 | -0.1 | 0.5 | 6
Cc1ccc(C(=O)NC2CCN(C(=O)Nc3ccc(F)cc3)CC2)cc1 | 7.6% | 4 | -2 | -2.9 | 0.6 | -23
Cc1cc(C)cc(OCC(=O)N(Cc2ccc(Cl)cc2)CC2CCCO2)c1 (configuration not stated) | 0.1% | . | . | . | -0.4 | -15
CCOC(=O)c1ccccc1NC(=O)COC(=O)CN1C(=O)NC2(CCCC2)C1=O | -0.8% | 8 | -1 | -2.4 | 2.0 | 2
CCC(C)NC(=O)CSc1nnc(-c2cc(OC)c(OC)c(OC)c2)c(-c2cc(OC)c(OC)c(OC)c2)n1 (configuration not stated) | -0.1% | 5 | 4 | -2.2 | 1.0 | 8
CCOC(=O)C1=C(N)Oc2cc(O)ccc2C1c1ccc(Br)cc1 (configuration not stated) | 14% | 3 | -6 | -6.9 | -0.4 | 3
CC(=O)c1ccccc1OCc1ccc(S(=O)(=O)Cc2ccccc2)cc1 | 2.1% | 12 | -5 | -2.1 | 1.3 | -1
Cc1ccc([N+](=O)[O-])cc1NC(=O)c1ccc(C(C)(C)C)cc1 | 0.6%[38.3 µM] | 2 | -6 | -3.6 | 0.0 | 3
CCOC(=O)CC1(NC(=O)C2CCC(=O)N(C3CC3)C2)CCCCC1 (configuration not stated) | -0.2% | 0 | 12 | -5.6 | 0.0 | -2
N#CC/C(N)=N/NC(=O)CCCNc1ncc(C(F)(F)F)cc1Cl | 1.5% | 5 | -2 | -4.9 | 1.8 | 1
CCOc1ccccc1-c1nc(-c2ccc(NC(=O)Cc3ccccc3OC)cc2)no1 | -1.1% | -11 | -3 | -2.2 | 3.1 | -6
Cc1cccc2c1-c1sc(C(=O)Nc3nccs3)cc1CO2 | 4.9% | 0 | 13 | -4.0 | 0.4 | 4
CCC1CCCCN1Cc1ccc(OC)c(C)c1C (configuration not stated) | -2.6%[38.3 µM] | -3 | 0 | -3.8 | -0.6 | 4
Nc1c(-c2ccc(Cl)cc2)cnn1-c1cccc(C(F)(F)F)c1 | 5.6% | 1 | 9 | -0.5 | -0.1 | 39
CC(=O)Nc1ccc(SCc2csc(C)n2)cc1 | 1.1% | 1 | 9 | -6.8 | 0.2 | 10
Cc1cc(C(=O)N/N=C2\CCCC(C)C2)n[nH]1 (configuration not stated) | -0.6%[38.3 µM] | 48 | 25 | -3.3 | 0.1 | -8
CCCCCCN=C(C)C1=C(O)C(C(=O)OC)C(C)(C)CC1=O (configuration not stated) | 1.0% | -2 | 5 | 2.4 | -0.6 | 9
COc1ccc(C(=O)Nc2cc(C)on2)c(OC)c1 | 3.4% | -9 | 1 | -5.9 | 1.2 | -23
Cc1cc(C)nc(NC(=O)CCN2C(=O)c3ccccc3S2(=O)=O)n1 | -0.5% | 7 | 7 | -2.2 | -0.6 | -4
O=C(Nc1cccc(S(=O)(=O)NC2=NCCC2)c1)C1CCC1 | -1.0% | -12 | 12 | -2.4 | 0.0 | 16
CCc1nccn1C(=O)c1cnn2c(C(F)F)cc(-c3ccc(C)cc3)nc12 | -4.4% | -2 | 7 | -6.1 | 0.0 | 27
CCOC1(OCC)OC(c2ccccc2)=C(C#N)C(C=Cc2ccccc2)C1(OCC)OCC (configuration not stated) | 2.5% | 0 | 2 | -3.0 | 0.5 | -10
COC(=O)CSc1nnc(CNC(=O)c2ccccc2F)n1-c1ccccc1 | 0.6% | -10 | 10 | -3.5 | -1.2 | 59
CC1=C(C(=O)N2CCCCC2)C(c2ccc(Cl)cc2)n2c(nc3ccccc32)N1 (configuration not stated) | 4.3% | . | . | . | -0.2 | 1
Nc1ncncc1-c1ccc(F)cc1 | -0.3% | -6 | 1 | -3.5 | -0.5 | 18

Four compounds out of the list, sorted by molecular weight, highest first.
SMILES | PINK1 expr mod | CtBP-E1A inh | Six1-Eya2 blk | D2 agonist | TRPML1 ag | TRPML1 inh
CCC(C)NC(=O)CSc1nnc(-c2cc(OC)c(OC)c(OC)c2)c(-c2cc(OC)c(OC)c(OC)c2)n1 (configuration not stated) | -0.1% | 5 | 4 | -2.2 | 1.0 | 8
Cc1cc(C)cc(OCC(=O)N(Cc2ccc(Cl)cc2)CC2CCCO2)c1 (configuration not stated) | 0.1% | . | . | . | -0.4 | -15
CCC(=O)N(CCC(Cc1ccccc1)c1ccco1)Cc1ccco1 (configuration not stated) | 1.9% | 0 | -6 | -0.8 | 2.5 | 0
COc1ccccc1NC(=O)c1sc2nc(C)cc(C)c2c1N | 13% | 12 | 14 | -6.3 | -0.8 | 61

Later entries
SMILES | PINK1 expr mod | CtBP-E1A inh | Six1-Eya2 blk | D2 agonist | TRPML1 ag | TRPML1 inh
COc1ccc(CNC(=O)C/C(C)=N/NC(=O)Cc2ccc(OC)cc2)cc1 | 0.4% | -3 | -3 | -1.0 | -0.6 | 14
Cc1oc(C)c2c(=O)cc(-c3ccc4c(c3)OCO4)cc(OC(=O)c3ccccc3Br)c12 | 0.6% | . | . | . | -0.2 | 9
CN(C(=O)COC(=O)c1ccc(Br)c(S(=O)(=O)N2CCOCC2)c1)C1CCCCC1 | -0.9% | 0 | -5 | 0.7 | 0.0 | 4
Cc1ccc(Cl)c(OCC(=O)NCC(c2cccs2)N2CCOCC2)c1 (configuration not stated) | 5.1% | 6 | 10 | 0.9 | 0.9 | -13
Cc1ccc(SCc2c(C(=O)N/N=C/c3ccccc3)nnn2-c2nonc2N)cc1 | -0.8% | -12 | -15 | 3.8 | 1.0 | 40
O=C(O)CCCNC1=NCCC1 | 0.1% | 6 | 2 | -1.5 | -0.2 | 4
CC(C)[C@H](NC(=O)c1cccc(S(=O)(=O)N2CCOCC2)c1)C(=O)NCc1ccc(F)cc1 | -0.5% | 3 | 0 | -2.0 | 0.9 | -3
Cc1nc(C)c(-c2ccn(C(=O)NC(C)C)n2)s1 | -0.4% | -10 | 8 | -1.2 | 0.8 | 18
COC(=O)CCC(=O)NC(=S)Nc1ccccc1F | -0.5% | 2 | 8 | -1.6 | -0.1 | -11
CN(C(=O)COC(=O)C1(C)CC1(Cl)Cl)c1c(N)n(Cc2ccccc2)c(=O)[nH]c1=O (configuration not stated) | -2.0% | 0 | -4 | -3.6 | -0.6 | 9
O=C(Nc1cccc2ccccc12)c1ccc2sc([C@@H]3O[C@H](CO)[C@H](O)[C@H](O)[C@H]3O)nc2c1 | -1.1% | -19 | 6 | -6.6 | -0.8 | .
CC(C)C(NC(=O)CN(c1cccc(F)c1)S(C)(=O)=O)C(C)C | 0.4% | 6 | 3 | -2.5 | -0.7 | 4
Cc1ccc(S(=O)(=O)CS(=O)(=O)c2ccc(C)cc2)cc1 | -3.8% | 20 | 5 | -2.9 | 0.0 | -2
Cc1c(NC(=O)c2cc(-c3ccc(F)cc3)nc3ccccc23)c(=O)n(-c2ccccc2)n1C | 3.4% | 0 | 1 | 4.3 | -1.1 | -9
CCOC(=O)c1ccc(N/C=C/C(=O)c2ccccc2)cc1 | 6.5% | 5 | 12 | 2.1 | 0.0 | 15
CCCOC(=O)c1cccc(Nc2nc(CCC)cc(=O)[nH]2)c1 | ? | . | . | . | 0.4 | -8
COc1ccc(Cl)cc1S(=O)(=O)N1CCN(CC(=O)Nc2ccccc2C(F)(F)F)CC1 | -1.0% | . | . | . | -1.0 | -16

Compound activity deposited in PubChem by National Center for Advancing Translational Sciences (NCATS).
